Ecoli growth = E. coli growth inhibition, primary screen, OD600; Escherichia coli growth, 23 h; active compounds read low; OD600 absorbance (test concentration not listed); 330,000 tested, 0.21% active; AID 1053175, 2014;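 active = OD600 absorbance below the run mean of sample wells minus 3.6 SD, in any replicate, cut at about 0.56 in these data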;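 also: stock transfer was 300 nL into about 60 µL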
Beta2AR agonist = beta2AR agonists driving receptor internalization, primary screen, cell-based, FAP fluorogen, flow cytometry. Am2.2-beta2AR cells; reference of the scale not given here. AID 504454, 2011. 340,000 tested, 0.43% active. response, % (no concentration beside the values);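 active = response above a set limit, near 3 SD of response in nonfluorescent compounds, cut at about 42% in these data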;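 also: stock transfer was 100 nL into about 11 µL; a reference agonist was the positive control; negative values mostly stem from fluorescent compounds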
Target sequence (P07550 whole entry, looked up): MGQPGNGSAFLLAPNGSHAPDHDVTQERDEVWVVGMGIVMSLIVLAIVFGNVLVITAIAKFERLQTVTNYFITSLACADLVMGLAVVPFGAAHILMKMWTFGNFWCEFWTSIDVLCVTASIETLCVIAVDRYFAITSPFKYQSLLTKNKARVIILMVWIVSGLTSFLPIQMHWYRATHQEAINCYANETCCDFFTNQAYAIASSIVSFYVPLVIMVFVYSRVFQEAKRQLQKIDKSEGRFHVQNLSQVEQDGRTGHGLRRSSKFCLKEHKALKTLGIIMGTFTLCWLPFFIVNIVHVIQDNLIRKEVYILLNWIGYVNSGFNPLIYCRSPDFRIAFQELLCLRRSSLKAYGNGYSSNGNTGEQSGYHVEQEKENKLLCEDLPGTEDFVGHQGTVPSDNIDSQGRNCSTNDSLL
LANA-H2A inh = blockers of LANA interaction with H2A/H2B – biochemical, FP readout, HTS, primary screen | AID 2629, 2010 | Protein LANA1 (Human herpesvirus 8 type P (isolate GK18)), Q9QR71 | 320,000 tested, 0.6% active | cell-free LANA-H2A/H2B peptide, fluorescence polarization | inhibition, % (no concentration beside the values); in the data active = inhibition mostly above about 10%, no sharp cut-off; inactive = mostly below about 6.7%;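 also: stock transfer was 7.5 nL into about 10 µL; 0% = median of vehicle wells and 100% = median of positive control wells; one replicate is shown; the record names a cut of 25% in any replicate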
ALR inh = inhibitors of human ALR sulfhydryl oxidase, primary screen, biochemical, H2O2 detection, HRP-luminol luminescence, single point. inhibition, % (concentration not given with the values). purified ALR, DTT oxidation. FAD-linked sulfhydryl oxidase ALR (Homo sapiens), P55789. 290,000 tested, 3.8% active;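 active = mean and each replicate at 75% or more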;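 also: stock transfer was 7.5 nL into about 7.5 µL; 0% = neutral wells and 100% = wells with inactivated enzyme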
UCH37 inh = inhibitors of human UCH37 deubiquitinase, primary screen, biochemical, Ub-AMC cleavage, fluorescence. Ubiquitin carboxyl-terminal hydrolase isozyme L5 (Homo sapiens), Q9Y5K5. purified proteasome/UCH37. inhibition, % (concentration not given with the values). 330,000 tested, 0.33% active;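 active = mean of two replicates above 20%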;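 also: 0% = compound-free wells with enzyme and 100% = wells lacking proteasome; stock transfer was 100 nL into about 20 µL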
Target sequence (Q9Y5K5 whole entry, looked up): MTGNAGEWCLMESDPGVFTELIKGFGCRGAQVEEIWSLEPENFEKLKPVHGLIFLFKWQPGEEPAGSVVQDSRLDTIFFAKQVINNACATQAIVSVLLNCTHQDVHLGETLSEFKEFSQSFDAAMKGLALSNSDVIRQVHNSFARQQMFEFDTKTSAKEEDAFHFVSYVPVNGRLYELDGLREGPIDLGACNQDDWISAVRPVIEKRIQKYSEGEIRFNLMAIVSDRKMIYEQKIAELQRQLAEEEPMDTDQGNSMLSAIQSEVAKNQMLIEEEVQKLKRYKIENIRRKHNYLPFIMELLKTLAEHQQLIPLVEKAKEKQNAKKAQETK
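Test system – human UCH37 enzyme supplied as purified proteasome complex · Incubation – 30 min preincubation with enzyme, 25 min cleavage at room temperature · Detection – AMC fluorescence from Ub-AMC cleavage, excitation 355 nm, emission 460 nm · Benchmarks – no-proteasome wells (full inhibition) and compound-free wells (no inhibition)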
HNF4A DNA FP = change in binding of human HNF4A to DNA, primary screen, biochemical, fluorescence polarization, FITC-DNA; 360,000 tested, 0.3% active; 1 h; activity change, % at 10 µM; AID 1224865, 2016; Hepatocyte nuclear factor 4-alpha (Homo sapiens), P41235; in the data active = activity change above about 30%, passing the limit was not always enough;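 also: controls were the assay level and a saturating level of protein; the project sought stronger binding though the title names inhibitors; some compounds called inactive have numbers as strong as hits; positive values seem to mean higher polarization but the record does not say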
FGF22 binding = binders of human FGF22 protein, primary screen, FGF22 synaptogenesis inhibitor project, biophysical, thermal shift, single point; recombinant FGF22 thermal shift, SYPRO orange fluorescence; percent of sucrose octasulfate shift, DMSO zero; calls only at 9.99 µM; 340,000 tested, 1.5% active;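 active = melting point raised past a set limit in the mean and every replicate; three in four hits are not shown here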
Target sequence (Q9HCT0 whole entry, looked up): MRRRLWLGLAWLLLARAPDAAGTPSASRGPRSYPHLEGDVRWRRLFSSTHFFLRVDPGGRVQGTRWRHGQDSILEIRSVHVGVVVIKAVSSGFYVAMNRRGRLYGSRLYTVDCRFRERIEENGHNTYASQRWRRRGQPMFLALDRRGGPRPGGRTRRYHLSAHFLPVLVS
Starred values were filed as active, the others as inactive; i = inactive; · = no result given. A portion of the library, so the mix of outcomes need not match the whole.

SMILES	Ecoli growth	Beta2AR agonist	LANA-H2A inh	ALR inh	UCH37 inh	HNF4A DNA FP	FGF22 binding
CCn1c(SCC(=O)c2ccc3ccccc3c2)nnc1-c1cccs1	0.64	-8	4.2	·	0.4	-2.6	·
COc1cc2c(cc1OC)-c1nnc(-c3cccs3)n1C1(CCCC1)C2	0.81	-11	0.8	-1	-0.9	1.7	·
CCOc1ccc(C(=O)Nc2c3c(nn2-c2cccc(C)c2C)CS(=O)C3)cc1 (centres undefined)	0.72	-4	3.5	-6	6.2	1.8	i
CN(C)C(=O)COC(=O)[C@H](Cc1ccccc1)NC(=O)c1ccco1	0.71	19	-5.4	16	4.4	-1.7	·
O=C(Nc1nc(-c2ccc(-c3ccccc3)cc2)cs1)C1CCCO1 (centres undefined)	0.73	5	-5.3	-2	-4.4	-1.0	·
c1ccc(CN(Cc2ccco2)C(c2ccncc2)c2nnnn2C2CCCC2)cc1 (centres undefined)	0.66	1	1.1	-25	-2.8	5.3	·
CCOC(=O)C1(CCOc2ccccc2)CCN(C(=O)c2cncs2)CC1	0.68	-5	0.7	4	0.0	-11	i
CCCCn1c(N)c(N(CCOC)C(=O)CN(C)S(=O)(=O)c2ccc(Cl)cc2)c(=O)[nH]c1=O	0.72	-3	-4.0	-1	-1.0	1.6	i
C[C@@H]1CN([C@@H](C)CO)C(=O)c2cc(NC(=O)Nc3ccc4c(c3)OCO4)ccc2O[C@H]1CN(C)S(=O)(=O)c1ccc(F)cc1	0.74	0	0.8	-2	4.6	1.9	i
COc1ccccc1OC(=O)c1cc2ccccc2oc1=O	0.69	-14	-6.8	28	-3.4	0.8	i
Cn1c(SCC(=O)Nc2ccc3[nH]c(=O)[nH]c3c2)nnc1-c1ccccc1	0.69	-5	-2.5	-12	3.8	-0.5	i
COc1cc(O)cc2cc3c(c(O)c12)C(=O)CC(C)(O)O3 (centres undefined)	0.78	-3	0.9	51	8.5	-14	i
Cc1ccc(/C=N/NC(=S)N2CCOCC2)cc1	·	12	3.3	1	·	0.1	·
O=C(NCc1ccccc1)C1CCN(S(=O)(=O)c2ccc(Cl)cc2)CC1	0.73	-6	0.5	·	2.9	-0.1	i
C/C(=N\Nc1ccc(C(=O)O)cc1)c1ccc(Cl)s1	·	7	3.7	·	·	1.9	i
COc1ccc(S(=O)(=O)N2CCC(C(=O)N3CCc4ccccc4C3)CC2)cc1OC	0.68	-2	2.8	-4	3.2	4.7	·
N#Cc1ccc(OCC(=O)Nc2cccc(S(=O)(=O)NC3=NCCCCC3)c2)cc1	0.68	2	-4.2	·	-0.8	-4.2	i
CCCc1cc(=O)n2[nH]c(NCc3ccccc3F)nc2n1	0.73	-5	10	0	0.6	-4.5	·
CCCCNCc1cc(OCC)c(OCC)cc1Br	0.69	0	5.0	-3	0.6	3.1	i
Cn1c(=S)n(/N=C/c2ccc3c(c2)OCO3)c2ccccc21	·	0	-3.8	5	·	1.8	·

Among those listed so far, these have a halogen:
SMILES	Ecoli growth	Beta2AR agonist	LANA-H2A inh	ALR inh	UCH37 inh	HNF4A DNA FP	FGF22 binding
CCCCn1c(N)c(N(CCOC)C(=O)CN(C)S(=O)(=O)c2ccc(Cl)cc2)c(=O)[nH]c1=O	0.72	-3	-4.0	-1	-1.0	1.6	i
C[C@@H]1CN([C@@H](C)CO)C(=O)c2cc(NC(=O)Nc3ccc4c(c3)OCO4)ccc2O[C@H]1CN(C)S(=O)(=O)c1ccc(F)cc1	0.74	0	0.8	-2	4.6	1.9	i
O=C(NCc1ccccc1)C1CCN(S(=O)(=O)c2ccc(Cl)cc2)CC1	0.73	-6	0.5	·	2.9	-0.1	i
C/C(=N\Nc1ccc(C(=O)O)cc1)c1ccc(Cl)s1	·	7	3.7	·	·	1.9	i
CCCc1cc(=O)n2[nH]c(NCc3ccccc3F)nc2n1	0.73	-5	10	0	0.6	-4.5	·
CCCCNCc1cc(OCC)c(OCC)cc1Br	0.69	0	5.0	-3	0.6	3.1	i

Later entries
SMILES	Ecoli growth	Beta2AR agonist	LANA-H2A inh	ALR inh	UCH37 inh	HNF4A DNA FP	FGF22 binding
Cc1cc(C)nc(/N=C(\N)Nc2ccc(F)c([N+](=O)[O-])c2)n1	·	-1	6.6	19	·	0.3	·
Cc1ccc(C)c(NC(=O)c2ccccc2Sc2ccc([N+](=O)[O-])cc2Cl)c1	0.72	0	-3.7	4	2.5	-2.9	i
COc1ccc(OCC(=O)NC(=S)Nc2ccc3c4c(cccc24)CC3)cc1	0.75	-2	-2.8	0	5.6	0.5	i
C=C(C)CSc1nnc([C@@H]2CCCN2)o1	0.68	-2	0.8	1	2.1	-0.1	·
CC(=O)c1ccc(NC(=O)CC2S/C(=N/N=C3CCCCCC3)NC2=O)cc1 (centres undefined)	0.71	0	·	·	3.6	1.3	i
O=C(NCCF)C1Nc2ccc(OC(F)(F)F)cc2C2C=CCC12 (centres undefined)	0.62	-6	-3.8	8	0.8	1.3	·
CC(C)Cc1nc2ccccc2[nH]1	0.67	-4	-3.0	-3	5.2	-0.9	i
CCCOc1cccc(-c2nn(-c3ccccc3)cc2/C=C(\C#N)C(=O)NCCCn2ccnc2)c1	0.69	-14	·	·	-8.3	25	i
Cc1ccc2cccc(S(=O)(=O)Nc3ccc4c(c3)OCO4)c2n1	0.7	-4	-2.9	-7	4.4	-1.9	·
COC(=O)c1ccc(CSc2cc(C)c3ccccc3n2)o1	0.69	5	-2.5	4	2.1	2.6	i
c1ccc(C(c2nnnn2Cc2cccs2)N2CCN(C3CCCC3)CC2)cc1 (centres undefined)	0.71	-2	-4.8	-10	1.6	-4.4	·
CCOC(=O)N1CCC(N2Cc3cccc(C(=O)N4CCN(c5cccc(Cl)c5)CC4)c3C2=O)CC1	0.65	6	1.6	-4	1.5	-0.8	i
COc1ccc(OC)c(NC(=O)CSc2nc(C)cs2)c1	0.58	4	-1.3	-5	0.0	-8.0	·
O=C(CCN1CCN(CC(=O)Nc2ccccc2F)CC1)Nc1ccccc1F	0.68	-4	-9.8	·	·	-1.9	·
CCOc1ccccc1NC(=O)NC1(C(=O)NCC2CCCO2)CCCCC1 (centres undefined)	0.67	7	0.4	8	-1.8	5.4	i
CC(=O)NCCn1c(SCc2ccccc2C)nc2ccccc2c1=O	0.72	-4	-2.2	40	1.9	1.9	·
Cc1nn(C)c(Cl)c1C(=O)NC(C(=O)O)c1ccccc1 (centres undefined)	0.7	-4	-5.2	3	0.7	28	i
O=C(OCCOc1ccccc1F)c1cc(S(=O)(=O)N2CCOCC2)ccc1F	·	0	·	·	·	2.9	i
CCN(CC1COc2ccccc2O1)C(=S)NC1CC2CCC1C2 (centres undefined)	0.67	5	3.5	4	5.3	-0.2	i
COc1ccc(N=C2SCC(=O)N2Cc2ccccc2)cc1	0.69	3	1.1	5	7.1	1.4	i
COc1ccc(N2CCN(C(=O)c3cccnc3)CC2)c([N+](=O)[O-])c1	·	-1	-0.1	·	·	0.9	·
CCOc1ccc(CC2c3cc(OCC)c(OCC)cc3CCN2C(=O)CN2CCN(C)CC2)cc1OCC (centres undefined)	0.66	1	1.4	-8	3.5	1.7	i
CC(C)Cc1nnc(NC(=O)CCN2C(=O)c3ccccc3C2=O)s1	0.72	0	2.9	-4	4.9	0.8	i
Cc1cccc(NC(=O)CNc2cc(C)ccc2C)c1	0.69	10	-0.4	-16	-0.3	-1.9	·
CCOC(=O)c1[nH]c2ccc(OC)cc2c1NC(=S)N1CCN(c2ccccc2)CC1	·	1	1.4	24	·	-2.9	·
CCn1c(O)c(N=NC(=O)CNc2cccc(C)c2)c2ccccc21	0.72	-8	-1.3	3	7.6	-4.8	i
COc1ccc(NC(=O)C2CCCN2C(=O)OCc2ccccc2)c(OC)c1 (centres undefined)	0.79	0	·	·	5.6	-7.1	·
CN1CCN(c2ncnc3sc(-c4ccccc4)cc23)CC1	0.68	-5	1.0	-8	-1.6	3.6	i
CCOC(=O)C1CCCN(C(=O)c2cc3cc(Br)ccc3oc2=O)C1 (centres undefined)	0.7	-2	-4.8	-1	4.5	-1.8	i
COc1cc(Br)c(CC(=O)NNC(=O)c2ccc(F)cc2)cc1OC	0.7	0	2.3	-2	2.8	1.4	i
CN1CCN(C(CNS(=O)(=O)c2ccc(Br)cc2)c2ccc3c(c2)OCO3)CC1 (centres undefined)	0.66	6	-8.4	-2	3.4	-0.9	i
CC(=O)N1CCN(S(=O)(=O)c2ccc(C)cc2)C1c1ccc(N(C)C)cc1 (centres undefined)	0.7	0	-0.1	52	3.5	2.1	·
CCC(C)C1(C2CCCC2)NC(=O)NC1=O (centres undefined)	0.68	2	·	·	3.5	-1.7	i
Cc1nc2ccc(C(=O)NCc3ccc4c(c3)OCO4)cc2s1	0.69	-3	-4.9	-33	1.3	-1.6	·
Cc1ccc(CCNC(=O)c2cc(-c3ccncc3)nc3ccc(S(=O)(=O)N4CCOCC4)cc23)cc1	0.7	17	-2.4	·	2.1	2.3	i
COc1ccc(C2CC(O)(C(C)(C)O)NO2)cc1 (centres undefined)	0.68	13	-1.9	0	0.7	-2.3	·
CCCn1c(N)c(C(=O)COC(=O)CCS(=O)(=O)c2ccc(C)cc2)c(=O)[nH]c1=O	0.7	-2	1.9	1	1.4	-2.1	i
COc1ccc(C(=O)CSc2nnc(-c3cccs3)n2-c2ccccc2)cc1	0.75	-12	-1.4	-1	3.3	-0.5	·
Cc1ccc(NC(=O)c2cc(NC(=O)C3CC=CCC3C(=O)O)ccc2N2CCOCC2)cc1Cl (centres undefined)	0.69	1	-2.6	43	-1.2	3.7	·
COC(=O)c1ccc(OCCOc2ccccc2)cc1	0.76	-2	0.1	12	2.6	-1.2	·
COc1ccc(C(=O)NCC(=O)N/N=C/c2c(C)[nH]c3ccccc23)cc1OC	·	0	2.4	12	·	-0.3	i
CCCc1cc(=O)oc2cc(C)cc(OCC(=O)N3CCC(C(=O)O)CC3)c12	0.71	-2	6.5	-20	-118	1.3	i
CCOC(=O)c1sc(Nc2nc(C)cc(C)n2)nc1C	0.63	-10	-0.4	·	0.3	1.7	i
COC(=O)c1ccc(/C=N\NC(=O)CC(=O)NCCc2ccccc2)cc1	·	-7	2.0	-1	·	-5.2	i
COc1ccc(/C=C2\CCn3c2nc2ccccc2c3=O)cc1OC	0.64	4	-2.2	-9	-42	1.1	·
COc1cc(C(=O)N(c2ccc(C)c(C)c2)C2C=CS(=O)(=O)C2)cc(OC)c1OC (centres undefined)	0.69	-3	0.1	-4	2.9	2.1	i
NC(=O)C1CCN(Cc2nc3ccccc3c(=O)[nH]2)CC1	0.69	-1	3.1	-3	3.4	2.3	·
Oc1cccc(C(O)CNCc2ccc(OCc3ccc(Cl)cc3Cl)cc2)c1 (centres undefined)	0.52	3	-1.5	3	0.5	2.1	·
O=C(CNC(=O)c1cccnc1)N/N=C/c1cc(Br)c(O)c(Br)c1	·	-5	3.2	43	·	0.8	i
CCOc1ccc2[nH]c(=O)c(CN(CCOC)C(=O)N3CCOCC3)cc2c1	0.73	-9	2.2	-39	-78	-1.1	·
Cc1noc(C)c1COc1ccc(C(=O)NNC(=O)c2ccccc2O)cc1	0.6	10	-4.0	-5	2.8	-2.9	i
COC(=O)C1=C(C)NC(=O)CC1c1cccc(Cl)c1Cl (centres undefined)	0.71	-7	-7.8	0	4.5	0.9	i
O=c1c(CO)cc(CO)cc(CO)c1O	0.65	-7	0.1	10	1.1	-0.1	i
CC1(C)NC(=O)N(CCCOc2ccccc2Br)C1=O	·	3	8.7	-4	·	3.5	·
COc1ccc(N=C2S/C(=C\c3cccs3)C(=O)N2CC(C)C)cc1	·	-6	-1.7	-21	0.6	0.1	·
CCOCCCn1c(=S)[nH]c2cc(C(=O)NCCN(CC)CC)ccc2c1=O	0.72	-17	-1.1	17	2.8	-2.0	·
